# UCH37 DUB inh = inhibitors of human deubiquitinating enzyme UCH37. purified proteasome/UCH37, Ub-AMC cleavage fluorescence. Q9Y5K5. 330,000 tested, 0.33% active. inhibition, % (concentration not given with the values);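 active = mean of two replicates above 20%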;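 also: 0% = compound-free wells with enzyme and 100% = wells lacking proteasome; stock transfer was 100 nL into about 20 µL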
# Target sequence (Q9Y5K5 whole entry, looked up): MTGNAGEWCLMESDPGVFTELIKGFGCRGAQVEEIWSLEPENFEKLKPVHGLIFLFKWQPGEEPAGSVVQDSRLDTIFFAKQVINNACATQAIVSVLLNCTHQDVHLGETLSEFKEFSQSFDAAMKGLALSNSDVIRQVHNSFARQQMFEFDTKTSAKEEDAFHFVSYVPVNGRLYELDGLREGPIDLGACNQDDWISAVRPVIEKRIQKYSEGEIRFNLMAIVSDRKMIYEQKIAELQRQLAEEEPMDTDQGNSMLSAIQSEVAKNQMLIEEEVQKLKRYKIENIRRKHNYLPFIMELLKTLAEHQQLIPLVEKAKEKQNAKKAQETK
#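 Material: Human UCH37 enzyme supplied as purified proteasome complex | Schedule: 30 min compound-proteasome preincubation then 25 min substrate reaction, room temperature | Detection: AMC fluorescence from Ub-AMC cleavage, excitation 355 nm, emission 460 nm | Benchmarks: Wells without proteasome as full block, compound-free enzyme plus substrate as uninhibited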
# Beta apoptosis = blocks beta cell apoptosis; INS-1E cytokine-induced death, ATP luminescence, 48 h; percent of positive-control rescue, neutral wells zero; protection from apoptosis, % (no concentration beside the values); 300,000 tested, 0.8% active; AID 435005;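 active = all replicates at 75% or more, or half of them and the mean; inconclusive = half reach 75% but not the mean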;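 also: 0% = cytokine-treated negative control wells and 100% = positive control rescue; higher means more ATP so stronger rescue from cytokine killing; wells of about 40 µL received 100 nL stock; the first replicate is given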
# Bfl-1 A1 inh = inhibitors of the anti-apoptotic protein A1, read as caspase activation; MEF A1-2A-BIM cells, Caspase-Glo 3/7 luminescence, 3 h; percent of clofoctol response, vehicle zero; caspase activation, % (no concentration beside the values); 330,000 tested, 0.066% active; AID 2462;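 active = over half of replicate activation scores above 10%, or exactly half above 10 with the replicate mean above 10; inconclusive = replicate mean below 10 yet half the replicates above 10; inactive = over half of replicates below 10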;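 also: wells of about 30 µL received 50 nL stock; many hits fall short of the cut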
# LANA-H2A inh = blocks KSHV LANA binding to histone H2A/H2B | cell-free LANA-H2A/H2B peptide, fluorescence polarization | inhibition, % (no concentration beside the values) | 320,000 tested, 0.6% active; in the data active = inhibition mostly above about 10%, no sharp cut-off; inactive = mostly below about 6.7%;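 also: stock transfer was 7.5 nL into about 10 µL; 0% = median of vehicle wells and 100% = median of positive control wells; one replicate is shown; the record names a cut of 25% in any replicate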
# Calb FLC = C. albicans growth modulation with fluconazole. growth inhibition, % (concentration not given with the values). 300,000 tested, 0.57% active. C. albicans CaCi-2 (fluconazole-resistant clinical isolate) + fluconazole, Alamar Blue growth, 48 h;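 active = most replicates above 75%; inconclusive = exactly half above 75%; inactive = most below 75%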;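 also: all wells also contain fluconazole at 8 µg/ml as a sub-toxic cotreatment; 0% = median of DMSO wells and 100% = median of geldanamycin control wells; wells of about 8 µL received 7.5 nL stock; the first replicate is given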
# T cruzi inh = T. cruzi replication inhibition | T. cruzi beta-gal in NIH3T3, luminescence, 90 h | inhibition, % (concentration not given with the values) | 300,000 tested, 1.4% active;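 active = mean inhibition across valid replicates above about 55%, limit read from the data; inconclusive = mean below that limit but half or more replicates reach it; inactive = mean below it, under half of replicates reach it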;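 also: signal also drops with host cell toxicity which is not excluded here; 0% = plate median of DMSO wells and 100% = zero luminescence signal; higher percent means less beta-gal luminescence so fewer parasites; stock transfer was 50 nL into about 50 µL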
# B2AR ag = agonists of human beta-2 adrenergic receptor inducing internalization; P07550; Am2.2-beta2AR cells, FAP receptor internalization, flow cytometry; reference of the scale not given here; response, % (test concentration not listed); 340,000 tested, 0.43% active;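 active = response above a set limit, near 3 SD of response in nonfluorescent compounds, cut at about 42% in these data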;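 also: stock transfer was 100 nL into about 11 µL; a reference agonist was the positive control; negative values mostly stem from fluorescent compounds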
# Target sequence (P07550 whole entry, looked up): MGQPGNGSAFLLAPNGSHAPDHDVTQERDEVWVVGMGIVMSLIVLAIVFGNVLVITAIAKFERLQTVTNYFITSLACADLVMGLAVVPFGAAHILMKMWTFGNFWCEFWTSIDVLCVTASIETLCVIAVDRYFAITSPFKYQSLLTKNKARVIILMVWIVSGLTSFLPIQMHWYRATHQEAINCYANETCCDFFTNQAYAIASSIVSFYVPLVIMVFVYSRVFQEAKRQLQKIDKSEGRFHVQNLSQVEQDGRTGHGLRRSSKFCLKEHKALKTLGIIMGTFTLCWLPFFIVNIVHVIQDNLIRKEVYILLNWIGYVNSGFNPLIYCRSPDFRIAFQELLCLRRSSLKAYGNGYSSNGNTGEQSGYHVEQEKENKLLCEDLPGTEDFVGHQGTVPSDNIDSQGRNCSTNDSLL
# RanGTP-Imp inh = disruptors of Ran-importin-beta complex formation – biochemical, FRET, CFP-Ran, YFP-importin-beta, homogeneous, primary screen | cell-free CFP-Ran/YFP-importin-beta FRET ratio | 300,000 tested, 1.1% active | inhibition, % (no concentration beside the values);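 active = most replicates above 15%; inconclusive = exactly half above 15%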;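 also: 0% = DMSO wells and 100% = Ran loaded with GDP instead of GTP; wells of about 40 µL received 100 nL stock; the first replicate is given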
# An asterisk follows results filed as active; i = inactive; ? = inconclusive; / = not tested or not shown.
SMILES,UCH37 DUB inh,Beta apoptosis,Bfl-1 A1 inh,LANA-H2A inh,Calb FLC,T cruzi inh,B2AR ag,RanGTP-Imp inh
CCOC(=O)C(Cc1ccccc1)C(=O)NCc1ccccc1 (stereo unspecified),2.5,-1,0.5,-1.3,-2,-17,10,-1.9
COc1ccc(CCNC(=O)Cn2c(=O)[nH]c3ccsc3c2=O)cc1OC,5.8,-3,1.5,-2.1,7,-3,1,-5.0
CN(Cc1ccccc1)C(=O)c1ccc(NC(=O)Cc2cccc([N+](=O)[O-])c2)cc1,3.1,38,-0.6,2.0,/,/,-7,/
CCOc1ccc(-c2nc(CSCC(=O)N3CCN(C(=O)c4ccco4)CC3)c(C)o2)cc1,1.5,-13,-0.7,-1.2,0,-2,-8,2.4
COCCN(Cc1nc2ccccc2c(=O)[nH]1)C(=O)COc1cccc(C(C)=O)c1,2.0,-2,0.3,-2.5,/,/,2,/
COc1ccc(-n2cc(CNCc3cccnc3)c(-c3cccc(F)c3)n2)cc1,0.3,4,-0.5,-7.9,0,26,-14,23
CCOC(=O)C1=C(O)/C(=C/c2ccc(CNC(=O)C(=O)Nc3ccc(C)cc3)o2)N=C1C,-4.3,-6,-1.3,3.8,?,-12,75*,2.6
COc1cc(CN2CCC(Cc3ccccc3)CC2)cc(OC)c1OC,3.7,-9,-1.3,0.9,3,13,-4,2.6
CC(C)(C)c1cc(C(=O)NNC(=O)c2ccc(Cl)cc2)no1,2.2,-3,0.5,1.3,-5,9,-4,-1.6
O=C(NCC1(c2ccccc2)CCCC1)c1ccc(Br)cc1,2.5,15,-0.4,-1.6,47,21,1,-3.4
CCCNC(=O)c1ccc(N2CCC3(CC2)CC(c2cccc(Br)c2)=NO3)c(NC(=O)c2ccc(Cl)c([N+](=O)[O-])c2)c1,5.2,-1,0.4,0.6,2,11,15,1.0
Cc1ccc(/C=N\NC(=O)/C(=C\Nc2nccc(C)n2)NC(=O)c2ccccc2)cc1,/,-5,0.3,2.5,0,-3,4,4.2
O=C1CCC(C(=O)N2CCN(c3ccccc3)CC2)CN1CC1CCCCC1 (stereo unspecified),6.7,5,0.9,-0.9,0,8,-10,-1.8
C/C(=N\Nc1ccc(Cl)c(C(=O)O)c1)c1cc2ccccc2o1,/,-4,0.7,-2.7,-4,-9,-1,-7.2
CCOc1ccc(NC(=O)CN(C)C(=O)c2cc(C)nc3ccccc23)cc1OCC,-1.2,-8,-0.8,-4.7,/,/,5,/
COc1ccc(C(=O)Oc2ccc(/C=N/NC(=O)c3ccccc3OC)cc2[N+](=O)[O-])cc1,/,-2,-0.4,/,0,-23,-5,1.1
CC1=C(C(=O)Nc2ccccc2C(=O)NCCCOC(C)C)SCCO1,4.3,-3,0.0,4.4,-1,-15,4,-3.8
COc1ccccc1NCCC(=O)OCC(=O)NC1CCCC(C)C1C (stereo unspecified),1.2,-3,-1.0,0.3,-14,-8,-42,1.5
COc1ccc(CCNC(=O)C(=O)NCC2OCCN2S(=O)(=O)c2cccs2)cc1 (stereo unspecified),0.4,-3,0.3,0.5,-14,0,1,-4.7
COc1ccc(Oc2c(C)oc3cc(OC(=O)N4CCOCC4)ccc3c2=O)cc1,-0.5,0,0.6,0.8,-24,6,-9,?
COn1c(-c2ccc(C)cc2)nc2ncccc21,-4.3,4,3.1,-4.2,-12,-8,8,-4.4
COc1ccc(NC(=O)c2ccc3nc[nH]c3c2)cc1,3.3,-4,-0.4,12,-7,-14,7,-1.3
CN1CCN(S(=O)(=O)c2cccc(C(=O)Nc3cc(C(F)(F)F)ccc3N3CCCCC3)c2)CC1,-9.3,18,-0.5,-3.7,3,45,15,5.7
N#Cc1cc([N+](=O)[O-])cnc1N(CCO)CCO,14,-5,0.1,-0.8,18,0,6,2.2
CSc1ccccc1NC(=O)c1ccc(N2CCCC2=O)cc1,0.0,1,-2.9,-0.9,/,/,-8,/
# Next part
SMILES,UCH37 DUB inh,Beta apoptosis,Bfl-1 A1 inh,LANA-H2A inh,Calb FLC,T cruzi inh,B2AR ag,RanGTP-Imp inh
COc1ccc(NS(=O)(=O)c2cccc(C(=O)N/N=C(\C)c3ccncc3)c2)cc1,/,-3,1.0,0.6,0,-9,-4,-4.5
CC1CC(=O)C2=C(C1)Nc1ccccc1N=C2 (stereo unspecified),2.8,-1,0.9,-0.2,-3,/,-10,1.4
Cc1ccc(N2CCN(C(=S)Nc3ccccc3C)CC2)cc1,-3.3,-8,?,3.3,2,4,-3,-3.8
CCOC(=O)Cc1nnc2c(Nc3ccccc3F)nc3nonc3n12,-5.3,23,-0.7,-2.0,-13,-20,4,3.7
C[N+]1(CC(=O)OCCCC2CCCCC2)CCCC1,0.7,-11,0.8,3.9,-18,-6,0,-3.6
Cc1ccc(C(=O)NCc2ccco2)cc1[N+](=O)[O-],0.4,-2,-0.7,-6.8,7,7,4,0.9
CC(Nc1nc(N2CCN(CCO)CC2)nc2ccccc12)c1ccccc1 (stereo unspecified),-52,6,0.0,6.7,5,-7,16,-0.6
COCCCNCCOCCOc1ccc(C)cc1[N+](=O)[O-],5.4,-9,0.8,3.1,8,21,2,2.6
CN(Cc1ccccc1)C(=O)COC(=O)c1cc(=O)[nH]c2ccccc12,-32,2,0.4,4.7,/,/,-7,/
COc1ccc(-c2nc3n(c(=O)c2C#N)CCS3)c(OC)c1,-25,-6,-0.3,-1.6,-11,0,-8,-1.6
COc1ccccc1NC(=O)CSCC(=O)N1c2ccccc2CCc2ccccc21,5.8,-7,-0.7,-10,26,3,12,/
COc1ccc(CCNC(=O)COc2nncc3ccccc23)cc1,2.5,-7,0.3,-4.6,22,-10,11,?
O=C(Oc1ccc2c(c1)OCO2)C12CC3CC(CC(C3)C1)C2,3.0,-3,-0.3,3.8,-13,-22,-2,2.2
COc1ccc2cc(C(=O)C3CCCN(C(=O)C4=NN(C)C(=O)CC4)C3)ccc2c1 (stereo unspecified),i,-4,-0.3,3.8,16,1,4,2.6
COc1cc2c(cc1OC)CN(CCC(=O)c1ccc(Br)cc1)CC2,-6.3,-10,0.9,4.3,1,-1,4,-3.7
CC(=O)Nc1ccc(NC(=O)CSc2nnc(-c3ccco3)o2)cc1,3.1,-1,-0.2,20*,-3,-2,3,3.1
CCCC(C(=O)NCCC(C)C)N(Cc1ccc(OC)cc1)C(=O)c1snc(C(N)=O)c1N (stereo unspecified),-16,7,-1.0,1.5,-2,29,3,0.5
NNC(=O)C1CC(O)CN1S(=O)(=O)c1ccc(Cl)cc1 (stereo unspecified),/,-1,0.6,18*,-11,-29,2,-1.3
COC(=O)/C=C/C(=O)NCc1ccco1,-0.4,-4,?,-0.8,-1,-17,12,2.5
CC(=O)N1CCN(C(=S)c2ccc([N+](=O)[O-])cc2)CC1,4.8,0,3.2,4.6,3,-5,2,2.8
O=C(COC(=O)Cc1ccccc1[N+](=O)[O-])NCc1ccccc1Cl,2.7,-1,0.2,-3.9,-6,-2,-2,-3.0
CC1(C)N=C(N)NC(Nc2ccc(Br)cc2)=N1,5.6,13,0.2,3.4,13,-19,2,-2.6
Cc1ccc(CN2CCN(CC(=O)NCCCN3CCN(c4ccc(F)cc4)CC3)C2=O)cc1,3.4,5,-0.4,-1.3,16,16,1,3.3
CC1(C)CC(=O)C=C(CN2C(=O)c3ccccc3C2=O)C1=O,1.9,-1,0.1,7.2,/,/,-2,/
Cc1cc(C(=O)COC(=O)CC2Sc3ccccc3NC2=O)c(C)n1-c1ccc(Br)cc1 (stereo unspecified),1.3,7,-0.5,-2.2,3,-4,18,-1.2
# Following part.
SMILES,UCH37 DUB inh,Beta apoptosis,Bfl-1 A1 inh,LANA-H2A inh,Calb FLC,T cruzi inh,B2AR ag,RanGTP-Imp inh
CCN(CC(=O)Nc1ccc(S(N)(=O)=O)cc1)S(=O)(=O)c1cc(C)ccc1OC,0.0,5,-0.3,0.3,-7,5,1,-3.1
CC1(C)CC(=O)C(CCC(=O)c2ccccc2)C(C)(C)N1 (stereo unspecified),5.2,-6,1.6,-2.0,-6,-1,-5,5.7
CC(=O)n1cc([C@H]2C=C(C(=O)NCc3ccccc3)O[C@@H](OCc3ccc(CO)cc3)C2)c2ccccc21,1.4,18,-0.1,3.2,-6,29,9,-0.8
COCCn1c(SC(C)C(=O)Nc2ccc(N3CCOCC3)cc2)nnc1-c1ccncc1 (stereo unspecified),6.6,-1,0.9,-2.1,2,-8,-3,/
O=C(c1ccccc1)N1CCN(c2ccc(N3CCOCC3)nn2)CC1,-265,-1,1.0,1.5,-9,-4,5,?
CCn1ncc(Br)c1C(=O)Nc1ccccc1C(F)(F)F,0.8,-4,0.4,1.1,-3,-20,-3,?
O=C(COc1ncnc2ccccc12)NCCc1ccccc1,6.1,-3,-0.5,-0.9,-6,-5,-3,5.6
Cc1ccc(C(=O)N2CCN(c3ccccn3)CC2)cc1,1.6,0,0.1,-0.4,19,-4,-6,-1.5
CCOCC(=O)Nc1nnc(C2CCCCC2)s1,0.2,-3,-1.1,3.8,5,1,-7,-0.3
COc1ccc(Cl)cc1-n1c(N)c(C(N)=O)sc1=S,12,-1,0.0,1.9,-1,-2,1,-0.2
Brc1ccc(-c2nc(-c3ccccn3)no2)o1,0.4,11,-7.8,4.3,-12,8,-8,-3.4
COc1cc(Cl)ccc1OCc1cc(C(=O)N2CCN(c3ccccn3)CC2)no1,-0.3,2,0.0,-5.5,-2,6,-4,1.0
COC(=O)C1=C(NC(=O)c2cccc(OC)c2)CCS1,-8.7,0,1.3,-2.5,7,12,5,-7.7
COCCCNC(=O)c1cc(C(=O)c2ccccc2Br)c[nH]1,-1.7,-2,0.2,-0.2,-16,-17,6,0.4
CN(CCOc1ccc(-c2ccn(S(=O)(=O)c3ccc(Cl)cc3)n2)cc1)c1ccccn1,3.0,25,-0.4,1.5,-8,44,-3,-2.0
CC1(C)CC(=O)c2c(O)cc(OCc3ccc(Br)cc3)cc2O1,-3.3,6,0.8,0.5,10,44,2,4.6

# Compound activity from PubChem BioAssay.

# Hits appear at their usual frequency; 4.3% or so of the library scored in one or more.
